Bioassay records from PubChem.
AF4-AF9 inh – MLL-AF4/AF9 protein interaction inhibition | P42568 | AlphaScreen, biotin-AF4 peptide binding to FLAG-AF9 | inhibition, % at 10 µM | 350,000 compounds, 0.47% hits;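 active = every replicate reaching a set inhibition limit, whatever the replicate mean, cut at about 25% in these data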;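 also: 0% = plate neutral control median and 100% = total signal loss; the record names both 10 and 1 µM as test concentration; the first replicate is given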
Target sequence (P42568 whole entry, looked up): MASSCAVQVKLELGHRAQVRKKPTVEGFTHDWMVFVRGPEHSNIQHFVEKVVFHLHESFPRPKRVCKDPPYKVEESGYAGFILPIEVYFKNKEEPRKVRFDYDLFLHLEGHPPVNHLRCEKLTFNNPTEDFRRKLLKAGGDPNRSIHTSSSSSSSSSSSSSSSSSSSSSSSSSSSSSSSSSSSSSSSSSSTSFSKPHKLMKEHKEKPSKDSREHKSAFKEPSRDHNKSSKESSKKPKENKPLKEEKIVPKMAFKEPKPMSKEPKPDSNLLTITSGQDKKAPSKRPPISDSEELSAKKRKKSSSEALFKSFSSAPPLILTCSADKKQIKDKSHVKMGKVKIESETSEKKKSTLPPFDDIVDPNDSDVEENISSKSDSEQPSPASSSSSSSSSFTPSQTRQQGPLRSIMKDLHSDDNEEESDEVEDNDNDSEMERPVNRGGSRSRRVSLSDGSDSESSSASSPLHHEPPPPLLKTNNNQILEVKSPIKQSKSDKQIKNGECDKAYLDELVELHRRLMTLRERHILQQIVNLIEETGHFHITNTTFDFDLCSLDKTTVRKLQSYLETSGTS
FGF22 binding – binders of recombinant human FGF22 by thermal shift; Q9HCT0; SYPRO orange fluorescence; percent of sucrose octasulfate shift, DMSO zero; calls only at 9.99 µM; 340,000 compounds, 1.5% hits;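 active = melting point raised past a set limit in the mean and every replicate; three in four hits are not shown here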
Target sequence (Q9HCT0 whole entry, looked up): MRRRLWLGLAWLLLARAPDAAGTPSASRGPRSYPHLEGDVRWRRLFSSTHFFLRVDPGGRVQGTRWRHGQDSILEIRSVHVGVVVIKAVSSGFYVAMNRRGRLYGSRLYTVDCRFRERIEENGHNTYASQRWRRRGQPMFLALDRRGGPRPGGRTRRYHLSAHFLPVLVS
* = called active by the depositor; i = inactive.

No.	AF4-AF9 inh	FGF22 binding	SMILES
1	1.1	i	O=[N+]([O-])c1ccc(/C=N\N2CCN(Cc3ccccc3Cl)CC2)cc1
2	1.1	i	CCc1cc(CNC(=O)C2CCC(=O)N(Cc3ccccc3F)C2)on1 (centres undefined)
3	-1.7	i	C[C@@H]1CN([C@@H](C)CO)C(=O)c2cc(C3=CCCC3)cnc2O[C@@H]1CN(C)Cc1ccccc1F
4	4.8	i	O=C(C1CCCCC1)N1CCC2CC1c1cc(N3CCCCC3)ccc12 (centres undefined)
5	-5.8	i	O=C(Nc1cccnc1)c1ccc(CSc2ccc(Cl)cc2)o1
6	-1.8	i	O=C(NCC(c1ccco1)N1CCCC1)c1cccc(S(=O)(=O)N2CCCCC2)c1 (centres undefined)
7	-2.2	i	C[C@@H]1CN([C@@H](C)CO)C(=O)c2cc(NC(=O)c3ccncc3)ccc2O[C@@H](C)CCCCO[C@@H]1CN(C)CC1CCCCC1
8	1.6	i	CNC[C@@H]1Oc2ccc(NC(=O)Nc3ccccc3)cc2CC(=O)N([C@@H](C)CO)C[C@H]1C
9	-2.1	i	C=C(C)CN1C(=O)C(C)SC1=NN=C1SCC(=O)N1C (centres undefined)
10	1.1	i	CCOC(=O)[C@]12CCC=C1N(Cc1cccc3ccccc13)C(=O)[C@H](CC(=O)N1CCCC1)C2
11	1.2	i	COCCOC(=O)N1C(=O)[C@@]2(c3cc(C#Cc4ccc(OC)cc4)ccc31)[C@H](c1ccccc1OCCO)N1[C@H](c3ccccc3)[C@H](c3ccccc3)OC(=O)[C@H]1[C@@H]2C(=O)NC[C@H](O)c1ccccc1
12	8.1	i	C[C@H]1CCCCO[C@@H](CN(C)CC2CCCCC2)[C@@H](C)CN([C@@H](C)CO)C(=O)c2cc(NC(=O)Nc3ccc(C(F)(F)F)cc3)ccc2O1
13	-7.8	i	COc1ccc(C2NC(=O)NC(C)=C2C(=O)OC2CCCCC2)cc1 (centres undefined)
14	-3.5	i	CC(C)c1cccc(-c2csc(C(O)c3ccc(F)c(F)c3)n2)c1 (centres undefined)
15	2.1	i	COc1ccc([Si](C)(C)[C@@H]2[C@@H](CCO)O[C@]3(C(=O)N(Cc4ccc(N5CCOC5=O)cc4)c4ccccc43)[C@H]2C)cc1
16	0.8	i	OCCN1CCN(c2ncnc3c2ncn3[C@H]2CN(Cc3ccc(F)cc3)C[C@@H](CO)O2)CC1
17	-8.3	i	O=C(O)c1ccccc1-c1cccc2nncn12
18	-1.3	i	COc1cccc(C(=O)N2CCC2(C)C(=O)O)c1 (centres undefined)
19	2.7	i	O=C(O)CCCCCCC(=O)Nc1ccc(C2OC(CSCCO)CC(c3ccccc3)O2)cc1 (centres undefined)
20	-0.2	i	CC(Sc1nnc(-c2ccncc2)n1C)C(=O)NCC(=O)Nc1ccc(F)c(F)c1F (centres undefined)
21	-7.9	i	CCc1nc2c(OCC(=O)C(C)(C)C)cccn2c1N(C=O)Cc1ccc(OC)cc1
22	-1.1	i	Nc1nc2c(ncn2[C@@H]2O[C@H](CNCc3ccccc3)[C@@H](O)[C@H]2O)c(=O)[nH]1
23	-2.5	i	C=CCNC(=O)[C@H]1[C@@H]2C(=O)O[C@@H](c3ccccc3)[C@@H](c3ccccc3)N2[C@@H](c2ccc(OCCO)cc2)[C@]12C(=O)N(C(=O)OCCOC)c1ccc(C#Cc3ccc(OC)cc3)cc12
24	0.4	i	CCCCN(C=O)c1c(CC)nc2c(OCC(=O)c3ccc(F)cc3)cccn12
25	-1.3	i	CCS(=O)(=O)N[C@@H]1C=C[C@@H](CC(=O)NCc2ccc(F)cc2)O[C@H]1CO
26	-3.9	i	O=C1NCC(=O)N2[C@@H]1C[C@@H](C(=O)NCc1ccc(F)cc1)[C@H]2c1cccc(OCCO)c1
27	-1.4	i	CCN(CC)C(=O)c1nc(-c2cccc3ccccc23)no1
28	9.1	i	OC[C@@H]1[C@@H](c2ccc(C#CC3CC3)cc2)[C@H]2CN(CCC(F)(F)F)CCCCN12
29	-4.3	i	C[C@@H](NC(=O)[C@H]1O[C@@H](n2cnc3c(N)ncnc32)[C@H](O)[C@@H]1O)c1cccc2ccccc12
30	-1.0	i	Cc1cccc(C(=O)O)c1O
31	-1.6	i	CC(C)c1ccc(CN2CCC2(C)C(=O)Nc2ccc3c(c2)OCO3)cc1 (centres undefined)
32	-6.2	i	O=C(CSc1ccc(Cl)cc1)NC1CC1
33	0.2	i	C[C@H]1CN([C@@H](C)CO)C(=O)Cc2cc(NC(=O)NC3CCCCC3)ccc2O[C@H]1CN(C)C(=O)Nc1cccc2ccccc12
34	0.9	i	CCCNC(=O)[C@@]1(Sc2ccc(C)cc2)CC(=O)N(C2CCCCC2)[C@@H]1c1ccc(CO)cc1I
35	-18	i	O=C1CSC(c2ccccc2)N1c1ccc(-c2ccccc2)cc1 (centres undefined)
36	2.1	i	CCOC(=O)C1=Nc2cccc3c(O)ccc1c23
37	0.2	i	CCNC(=O)C1CCCN(C(=O)c2ccc(N(C)C)cc2)CC1 (centres undefined)
38	-1.0	i	COc1cc2c(cc1OC)CN(C(=O)[C@H]1[C@@H]3C(=O)O[C@@H](c4ccccc4)[C@@H](c4ccccc4)N3[C@@H](c3ccccc3OCCO)[C@]13C(=O)Nc1ccc(C#CC4=CCCCC4)cc13)CC2
39	-5.6	i	COC(=O)CCCCCCC(=O)Nc1ccc(C=O)cc1
40	-0.1	i	Cc1ccc(-c2nc3c4ccccc4ccn3c2Cc2ccccc2)cc1
41	-1.4	i	CN1CCCC(C(=O)Nc2cccc(Cl)c2)CC1 (centres undefined)
42	1.2	i	O=C1c2ccccc2C(=O)N1CC1CCN(Cc2ccc(OCCO)cc2)CC1
43	-5.2	i	Cn1cnc(S(=O)(=O)N2CCCCN3[C@H](CO)[C@@H](c4ccc(C#CC5CC5)cc4)[C@@H]3C2)c1
44	0.1	i	O=C1O[C@@H](Cc2ccccc2)[C@H]2[C@@H]3C=CCCC=C3CN2C12CCCC2
45	1.5	i	COc1ccc(NC(=O)N(C)C[C@H]2Oc3cc(C#CCC(C)C)ccc3S(=O)(=O)N([C@@H](C)CO)C[C@H]2C)cc1

Next section (2 carried over from the part before).
No.	AF4-AF9 inh	FGF22 binding	SMILES
44	0.1	i	O=C1O[C@@H](Cc2ccccc2)[C@H]2[C@@H]3C=CCCC=C3CN2C12CCCC2
45	1.5	i	COc1ccc(NC(=O)N(C)C[C@H]2Oc3cc(C#CCC(C)C)ccc3S(=O)(=O)N([C@@H](C)CO)C[C@H]2C)cc1
46	3.8	i	O=C(C1CCCC1)N1CCCCN2[C@@H](CO)[C@@H](c3ccc(-c4cccc(F)c4)cc3)[C@@H]2C1
47	-0.3	i	COc1ccc(NC(=O)N[C@H]2C=C[C@H](CC(=O)NC3CCCCC3)O[C@@H]2CO)cc1
48	8.4	i	COc1ccccc1C(=O)N/C(=C\c1cn(S(=O)(=O)N(C)C)c2ccccc12)C(=O)N1CCN(C)CC1
49	1.7	i	NC(c1csc(Nc2ccc(C(=O)NCCCO)cn2)n1)c1ccccc1Cl (centres undefined)
50	-2.6	i	O=C(COC(=O)c1ccc(Cl)c(S(=O)(=O)N2CCCCC2)c1)NC1CCCCC1
51	13	i	CN1CCC(=C2c3ccccc3Sc3ccccc32)CC1
52	-0.1	i	COc1ccc(C)cc1-n1cnc2sc(C)c(C)c2c1=O
53	-0.4	i	CCOC(=O)/C=C/c1c(OC)cccc1OC
54	-1.7	i	COCCNC(=O)c1cc2c(c(-c3cccc(C#CCN(C)C)c3)n1)[C@H](CCO)N(S(=O)C(C)(C)C)C2 (some centres undefined)
55	3.6	i	COc1ccc(Nc2cc(C)nc3ccc(C)cc23)cc1
56	3.3	i	CC(C)(C)OC(=O)CC[C@@]12N=C(c3ccc(OCCCO)cc3)O[C@@H]1c1ccccc1CN(C(=O)c1ccccc1)C2=O
57	-3.4	i	COc1ccc(Cc2c(C(C)(C)C)nc3ccc(Br)cn23)c(C)c1
58	-0.2	i	COC(=O)c1c(CC[C@@H](CO)NC(=O)N[C@H](Cn2cc(Cc3ccccc3)nn2)C(C)C)oc(C(C)=O)c1C(=O)OC
59	-0.3	i	COCCOC(=O)N1C(=O)[C@@]2(c3cc(C#CCCO)ccc31)[C@H](C(N)=O)[C@H]1C(=O)O[C@H](c3ccccc3)[C@H](c3ccccc3)N1[C@@H]2c1ccc(OCCO)cc1
60	3.2	i	Cc1nc2c(OCc3ccc(OC(F)F)cc3)cccn2c1N(C)C(=O)CCC1CCCC1
61	-1.2	i	C=C[C@H](OC)[C@@H](O)c1ccc(OC)c(O)c1
62	-3.3	i	COc1ccc(C#Cc2ccc([C@@H]3[C@@H](CO)N4CCCCN(S(=O)(=O)c5ccccc5)C[C@@H]34)cc2)cc1
63	2.8	i	CCN1C(=O)[C@H]2[C@@H](c3ccc(C(F)(F)F)cc3)N[C@]3(CCCN(Cc4ccccc4)C3=O)[C@H]2C1=O
64	-3.5	i	CC1CCCN(C(=O)c2cccc(S(=O)(=O)NCc3ccccc3)c2)C1 (centres undefined)
65	-4.5	i	CCN1C(=O)[C@H]2[C@@H](c3ccc(C)cc3)N[C@]3(CCCN(Cc4ccccc4)C3=O)[C@H]2C1=O
66	0.2	i	CCCCN1C(=O)C(CC(=O)NC(c2ccccc2)c2ccccc2)CC(C(=O)N(C)C)=C1C (centres undefined)
67	-1.2	i	O=C(Nc1ccc(F)cc1)N1CCCCN2[C@H](C1)[C@@H](c1ccc(-c3ccccc3F)cc1)[C@@H]2CO
68	-6.7	i	O=C(N=Nc1c(O)[nH]c2c(Cl)cc(Cl)cc12)c1ccccc1O
69	0.1	i	COCCOC(=O)N1C(=O)[C@@]2(c3cc(C#CC4(O)CCCCCC4)ccc31)[C@H](c1ccccc1OCCO)N1[C@H](c3ccccc3)[C@H](c3ccccc3)OC(=O)[C@H]1[C@@H]2C(=O)N1CCc2cc(OC)c(OC)cc2C1
70	1.8	i	O=C1O[C@@H](c2ccccc2)[C@@H](c2ccccc2)N2[C@@H](c3ccc(O)cc3)[C@]3(C(=O)Nc4ccc(C#CC5=CCCCC5)cc43)[C@@H](C(=O)N3CCCCCCC3)[C@H]12
71	-1.6	i	O=C(NCC1CCCCC1)c1csc([C@@H]2O[C@H](CO)[C@H](O)[C@H](O)[C@H]2O)n1
72	8.3	i	CO[C@H]1O[C@H](CO)[C@@H](OC(=O)Nc2ccccc2)[C@H](OC(=O)Nc2ccccc2)[C@H]1OC(=O)Nc1ccccc1
73	-5.9	i	COc1ccc(-c2ccc(SCC(=O)NC3CCCC3)nn2)cc1
74	3.4	i	CC(=O)OC[C@]12CC[C@H]3[C@@](C)(CC[C@H]4C(C)(C)CCC[C@]34C)[C@@H]1CC(C1=CC(=O)OC1O)O2 (some centres undefined)
75	-1.0	i	CC(=O)Nc1cccc(NC(=O)NC2CC(=O)N(c3ccc4c(c3)OCCO4)C2)c1 (centres undefined)
76	-2.9	i	CC1(C(=O)NS(=O)(=O)c2ccc(Cl)cc2)CCN1C(=O)C/C=C/c1ccccc1 (centres undefined)
77	-0.3	i	COc1ccc(S(=O)(=O)N[C@@H]2CC[C@@H](CC(=O)N3CCN(c4ccccc4)CC3)O[C@H]2CO)cc1
78	-3.0	i	CCCCNC(=O)C(OC(=O)c1ccccc1)c1ccco1 (centres undefined)
79	-0.8	i	Cc1cc2nc(C(C)(C)C)c(Cc3ccccc3)n2c(C)c1Br

Filtered by structure: the compounds so far containing four or more nitrogen atoms
No.	AF4-AF9 inh	FGF22 binding	SMILES
1	1.1	i	O=[N+]([O-])c1ccc(/C=N\N2CCN(Cc3ccccc3Cl)CC2)cc1
7	-2.2	i	C[C@@H]1CN([C@@H](C)CO)C(=O)c2cc(NC(=O)c3ccncc3)ccc2O[C@@H](C)CCCCO[C@@H]1CN(C)CC1CCCCC1
8	1.6	i	CNC[C@@H]1Oc2ccc(NC(=O)Nc3ccccc3)cc2CC(=O)N([C@@H](C)CO)C[C@H]1C
9	-2.1	i	C=C(C)CN1C(=O)C(C)SC1=NN=C1SCC(=O)N1C (centres undefined)
12	8.1	i	C[C@H]1CCCCO[C@@H](CN(C)CC2CCCCC2)[C@@H](C)CN([C@@H](C)CO)C(=O)c2cc(NC(=O)Nc3ccc(C(F)(F)F)cc3)ccc2O1
16	0.8	i	OCCN1CCN(c2ncnc3c2ncn3[C@H]2CN(Cc3ccc(F)cc3)C[C@@H](CO)O2)CC1
20	-0.2	i	CC(Sc1nnc(-c2ccncc2)n1C)C(=O)NCC(=O)Nc1ccc(F)c(F)c1F (centres undefined)
22	-1.1	i	Nc1nc2c(ncn2[C@@H]2O[C@H](CNCc3ccccc3)[C@@H](O)[C@H]2O)c(=O)[nH]1
29	-4.3	i	C[C@@H](NC(=O)[C@H]1O[C@@H](n2cnc3c(N)ncnc32)[C@H](O)[C@@H]1O)c1cccc2ccccc12
33	0.2	i	C[C@H]1CN([C@@H](C)CO)C(=O)Cc2cc(NC(=O)NC3CCCCC3)ccc2O[C@H]1CN(C)C(=O)Nc1cccc2ccccc12
43	-5.2	i	Cn1cnc(S(=O)(=O)N2CCCCN3[C@H](CO)[C@@H](c4ccc(C#CC5CC5)cc4)[C@@H]3C2)c1
48	8.4	i	COc1ccccc1C(=O)N/C(=C\c1cn(S(=O)(=O)N(C)C)c2ccccc12)C(=O)N1CCN(C)CC1
49	1.7	i	NC(c1csc(Nc2ccc(C(=O)NCCCO)cn2)n1)c1ccccc1Cl (centres undefined)
54	-1.7	i	COCCNC(=O)c1cc2c(c(-c3cccc(C#CCN(C)C)c3)n1)[C@H](CCO)N(S(=O)C(C)(C)C)C2 (some centres undefined)
58	-0.2	i	COC(=O)c1c(CC[C@@H](CO)NC(=O)N[C@H](Cn2cc(Cc3ccccc3)nn2)C(C)C)oc(C(C)=O)c1C(=O)OC
75	-1.0	i	CC(=O)Nc1cccc(NC(=O)NC2CC(=O)N(c3ccc4c(c3)OCCO4)C2)c1 (centres undefined)

These rows are one share of the data, so the mix of outcomes need not match the whole.
